Assay outcomes from PubChem.
miR-21 FLuc: raises the signal of a miR-21 reporter; Potency, µM (doses to about 38.3 µM), without a hit: at the top dose reporter change, positive = more light; HeLa miR-21 FLuc reporter, luciferase, 48 h; 340,000 tested, under 10 active; active = well fitted rising curve with a large enough effect; inconclusive = small, poorly fitted or top-dose-only effect; inactive = no such curve, though single readings can be large or run the other way;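 further: % of control where 0% means no effect; miR-21 action dims this reporter so a rising signal means less miR-21 action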
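Compounds were titrated across several concentrations (up to approximately 40 uM) and incubated 48 hours with HeLa miR-21-FLuc reporter cells (miR-21 target sequence downstream of FLuc, endogenous miR-21). Readout was firefly luciferase luminescence after lytic detection reagent.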
Rango-impB inh: inhibitors of Rango-importin beta complex formation | Potency, µM (titrated, usually from 92.2 µM), without a hit: at the highest dose inhibition of complex formation | actives 0.031% (n = 340,000) | Q14974 | Rango CFP/YFP FRET sensor + importin beta, 45 min | AID 540263; active = rising FRET ratio curve, often small or poorly fitted; inconclusive = mostly compound fluorescence or quenching in the first reads; inactive = flat curves in all reads;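 further: potency means the concentration at half of the fitted maximal effect; 0% = DMSO wells and 100% = buffer wells lacking importin beta; nearly all actives have a fitted effect of over 15% in size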
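Inhibition scored from the CFP 486 nm/YFP 530 nm FRET ratio 45 min after adding 0.125 microM importin beta to 50 nM Rango biosensor preincubated 5 min with compound (room temperature, PBS with DTT, Tween-20, BSA). No-importin wells as positive control.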
GLA inh pH 4.5: alpha-galactosidase A (human) inhibition, pH 4.5; P06280; 230,000 tested, under 10 active; activity change, negative = inhibition, % at 105 µM; purified enzyme, 4-MU-alpha-Gal fluorescence, pH 4.5; inconclusive = small, poorly fitted or top-dose-only inhibition, or a rising curve; inactive = flat fitted curve, though single readings scatter; no compound was filed as active;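 further: 0% = full activity with enzyme and -100% = basal without enzyme; dose as in the result columns while the protocol names 77 µM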
Target sequence (P06280 whole entry, looked up): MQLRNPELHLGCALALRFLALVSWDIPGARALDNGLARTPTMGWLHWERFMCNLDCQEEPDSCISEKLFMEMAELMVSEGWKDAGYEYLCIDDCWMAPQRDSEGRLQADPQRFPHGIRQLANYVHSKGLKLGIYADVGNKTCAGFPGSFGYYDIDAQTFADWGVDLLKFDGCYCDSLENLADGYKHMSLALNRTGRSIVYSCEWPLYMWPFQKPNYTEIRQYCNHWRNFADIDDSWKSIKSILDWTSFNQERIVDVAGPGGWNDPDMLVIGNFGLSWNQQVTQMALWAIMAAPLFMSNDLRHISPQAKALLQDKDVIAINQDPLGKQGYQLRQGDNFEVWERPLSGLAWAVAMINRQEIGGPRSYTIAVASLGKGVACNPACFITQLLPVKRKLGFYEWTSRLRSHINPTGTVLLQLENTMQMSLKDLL
Rango dissoc inh: inhibitors of RanGTP-induced Rango-importin beta complex dissociation | Biochemical FRET Rango-importin beta, RanGTP-induced dissociation | Potency, µM (highest dose often 46.1 µM), for inactives: at the top dose activity change, negative = inhibition | actives 0.071% (n = 340,000) | AID 540253; active means falling FRET ratio curve, often poorly fitted, with flat reads before Ran was added; inconclusive means other falling curves, or compound fluorescence or quenching; inactive means flat or rising ratio curve;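 further: potency means the concentration at half of the fitted maximal effect; % of control where 0% means no effect; nearly all actives have a fitted effect of over 45% in size; -100% = wells without RanGTP and RCC1; the record marks most hits as doubtful in a second field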
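Rango/importin beta premix (0.1/0.25 uM final), PBS + 1 mM DTT + 0.02% Tween-20 + 0.1% BSA; cpd 5 min RT; FRET pre-read; + RanGTP-RCC1 (0.6 uM Ran, 2 mM GTP, 0.2 uM RCC1); 45 min RT; FRET post-read, ex 430, em 486/530 nm.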
Active calls of the source: *; ? = inconclusive; / = no result given; & = joins results of further samples; [ ] = another dose, or the depositor's remark. Only part of the results is shown; the hit share may differ from the screen's.

SMILES | miR-21 FLuc | Rango-impB inh | GLA inh pH 4.5 | Rango dissoc inh
O=C(c1cc2nc(C3CC3)cc(C(F)F)n2n1)N1CCOCC1 | -14% | -4.5% | -1 | -1%
COC(=O)CC1=C(C(=O)OC)C(c2cccs2)C(C#N)=C(N)O1 (stereo unspecified) | 0% | ? | -10 | -25%
Cc1nc2cc(Cl)c(Cl)cc2n1-c1ccccn1 | / | -1.6% | / | 13%
CCOC(=O)c1c(C)nc(-c2ccccc2)nc1NC(=O)C(C)C | -51% | 21% | 10 | 1%
CCCCCCCN1C(N(C)C)=NC[C@@H]1Cc1ccccc1 | / | -1.0% | / | -8%
Cc1nn(C)cc1S(=O)(=O)N1CCN(c2ccccc2F)CC1 | 4% | -0.5% | / | -9%
O=C(N/N=C/c1ccc2c(c1)OCO2)c1ccc(Cn2cc([N+](=O)[O-])cn2)o1 | -32% | 0.4% | 2 | 10%
COc1ccc(-c2noc(CCC(=O)NC3CCCCCC3)n2)cc1 | -9% | -6.7% | / | ?
O=C(Cn1c(=O)[nH]c2sc3c(c2c1=O)CCCC3)NCC1CCCO1 (stereo unspecified) | 0% | 0.7% | / | 42%
CC(c1ccccc1)N1C(=O)NC(NC(=O)C(C)(C)C)(C(F)(F)F)C1=O (stereo unspecified) | 1% | 3.8% | 3 | ?
CN(C)c1ccc(C(=O)Nc2cccc(S(=O)(=O)NC3=NCCCCC3)c2)cc1 | / | -0.1% | / | -14%
CN(C(=O)COC(=O)C12CC3CC(CC(C3)C1)C2)c1c(N)n(Cc2ccccc2)c(=O)[nH]c1=O | / | 0.0% | / | -11%
COc1ccc(S(=O)(=O)NCC2CCCN(C(=O)c3cccnc3)C2)cc1 (stereo unspecified) | -1% | -2.3% | 19 | 1%
O=C(N/N=C/c1ccc2c(c1)OCO2)c1cccs1 | -67% | 3.5% | 2 | -10%
O=C(Nc1ccc(Br)cc1)c1ccc(N2C(=O)C3CC=C(Cl)CC3C2=O)cc1 (stereo unspecified) | -5% | 0.0% | 5 | -11%
COC(=O)c1ccc2ccccc2n1 | / | -1.0% | / | 2%
C=CCc1ccc(OC(=O)c2ccccc2)c(OC)c1 | -2% | -1.9% | -3&5 | 0%
Cc1cc(F)ccc1S(=O)(=O)Nc1nc2ccccc2nc1Cl | 9% | ? | / | 0%
O=C(NC(=O)c1ccccc1)OCC(F)(F)F | -2% | -0.1% | 2 | -7%
Fc1ccc(NC(=S)N2CCOCC2)c(F)c1 | -4% | -4.1% | / | 3%
CN1CCN(C(=O)CCN2C(=O)/C(=C\c3ccc(Cl)cc3Cl)SC2=S)CC1 | 6% | -0.3% | -9 | 1%
COC(=O)[C@H](Cc1ccccc1)NC(=O)C1(OC(C)=O)CC(OC(C)=O)C(OC(C)=O)C(OC(C)=O)C1 (stereo partly specified) | 0% | 2.7% | / | 1%
COc1ccc(Cl)cc1N1C(=O)/C(=C/c2sccc2C)N=C1SCC(=O)NC1CC1 | / | ? | / | ?
COc1ccccc1NC(=O)N1CCN(S(C)(=O)=O)CC1 | -1% | -2.0% | 4 | 6%
CCNC(=S)N/N=C/c1cccc(C)c1 | -32% | ? | -3 | -20%
CC(Oc1ccc([N+](=O)[O-])cc1)C(=O)NCC1CCCO1 (stereo unspecified) | -1% | 5.8% | / | -9%
CCOc1ccc(C(=O)Oc2cc(C)[nH]c(=O)c2[N+](=O)[O-])cc1OCC | 0% | 2.2% | / | -16%
Cc1ccc2cc(C)c(SCC(=O)NCC3CCCO3)nc2c1 (stereo unspecified) | -6% | 0.3% | / | -15%
O=C(CSc1nc2ccccc2[nH]1)NCc1ccccc1 | -37% | 4.2% | / | 0%
CCCN(CCC)CCCNC(=O)CN1C(=O)CSc2ccc(S(=O)(=O)N3CCOCC3)cc21 | -3% | -2.9% | 0 | 6%
O=C(O)CN1C(=O)c2ccc(C(=O)c3ccccc3)cc2C1=O | -1% | -1.6% | / | 2%
CCCOc1ccc(C2NC(=S)NC(C)=C2C(=O)c2ccccc2)cc1OC (stereo unspecified) | -6% | ? | -9 | -5%
O=C(OCc1c(Cl)cccc1Cl)c1cnccn1 | -1% | 0.1% | -5 | -8%
CC(=O)c1ccc(N=c2scc(C)n2C(C)C)cc1 | -42% | ? | 5[21.1 µM] | ?
CCOCC(=O)Nc1cccc(-c2nc3cccnc3s2)c1C | -11% | -0.8% | 3 | 15%
COC(=O)CNC(=O)C(NC(=O)OCc1ccccc1)C(C)C (stereo unspecified) | 3% | 0.8% | -13 | -10%
COC(=O)CSc1nnnn1-c1ccccc1 | -2% | 0.1% | 7 | -7%
CCCSC1=C(C#N)C(c2ccc(Cl)cc2Cl)CC(=O)N1 (stereo unspecified) | 0% | 7.5% | -4 | 0%
COc1ccc(OCc2nc(N)nc(Nc3ccccc3OC)n2)cc1 | -17% | -3.0% | -2 | 21%
COc1ccccc1NC(=S)NC(NC(=O)c1ccco1)C(Cl)(Cl)Cl (stereo unspecified) | -1% | 0.4% | -5 | 21%
O=C(CSCc1ccc(Cl)cc1)Nc1cccc(C(=O)O)c1 | -22% | 0.3% | / | -13%
COc1ccc(C(=O)Nc2c(N)nc(SCC(=O)c3ccccc3)[nH]c2=O)cc1 | -5% | -0.8% | / | -7%
CCCOC(=O)c1ccc(Oc2cn[nH]c2-c2ccc(OCC)cc2O)cc1 | 7% | -1.7% | 0 | -13%
COc1ccc(OC)c(S(=O)(=O)NCc2ccc(N3CCN(C)CC3)cc2)c1 | -1% | 0.0% | / | -1%
O=C(O)C1C2C=CC(C2)C1C(=O)Nc1cccc(Cl)c1 (stereo unspecified) | 3% | 2.9% | / | 27%
CC1=C(C(=O)OCc2ccccc2)C(c2cccnc2)n2nnnc2N1 (stereo unspecified) | -8% | 0.6% | -3 | 7%
CC(Sc1nc2ccc(Br)cc2[nH]1)C(=O)O (stereo unspecified) | -4% | 3.7% | -4 | 39%
COc1ccc(S(=O)(=O)N2CCN(c3nc(-c4cccnc4)nc4ccccc34)CC2)cc1 | / | -2.3% | / | 1%
CCN(CC)C(=O)CSc1nnc(-c2cccnc2)n1CCc1ccccc1 | -2% | 13% | -18 | -10%
CCOC(=O)COc1ccc(S(=O)(=O)c2ccc(OCC(=O)OCC)cc2)cc1 | 1% | -2.3% | 11 | 7%
COc1ccc(OC)c(NC(=O)C(=O)N/N=C/c2ccccc2[N+](=O)[O-])c1 | 0% | 0.0% | -6 | -15%
Cc1ccc(C2C(C(=O)c3cc4ccccc4o3)=C(O)C(=O)N2CCN2CCOCC2)cc1 (stereo unspecified) | -10% | 0.6% | / | -13%
O=C1c2ccccc2C(Nc2cccnc2)N1Cc1ccccc1 (stereo unspecified) | -10% | 3.0% | -4 | 26%
COc1ccc(NC(=S)N2CCN(S(=O)(=O)c3ccc(F)cc3)CC2)cc1 | -5% | -5.1% | / | 2%
CCOC(=O)CCc1nn(C)c(=O)c2ccccc12 | -3% | -3.8% | -1 | 9%
CCn1c(SCC(=O)Nc2sc(C)c(C)c2C#N)nnc1C(C)C | 0% | 0.5% | -4 | -4%
Cc1ccccc1NC(=O)NCCCN1CCN(C2CCCCC2)CC1 | 1% | -2.2% | -2 | 3%
CCCC(C)NC(=O)CSCc1ccc(OC)cc1 (stereo unspecified) | 1% | 2.4% | 3 | 5%
CCCNS(=O)(=O)c1ccc(NC(=O)c2ccccn2)cc1 | -46% | -1.6% | 3 | 24%
O=C(CC1Sc2ccccc2NC1=O)c1ccc(Br)cc1 (stereo unspecified) | -62% | 0.1% | 1 | 1%

A stretch taken from the entries so far, as a working copy:
SMILES | miR-21 FLuc | Rango-impB inh | GLA inh pH 4.5 | Rango dissoc inh
COc1ccc(OC)c(NC(=O)C(=O)N/N=C/c2ccccc2[N+](=O)[O-])c1 | 0% | 0.0% | -6 | -15%
Cc1ccc(C2C(C(=O)c3cc4ccccc4o3)=C(O)C(=O)N2CCN2CCOCC2)cc1 (stereo unspecified) | -10% | 0.6% | / | -13%
O=C1c2ccccc2C(Nc2cccnc2)N1Cc1ccccc1 (stereo unspecified) | -10% | 3.0% | -4 | 26%
COc1ccc(NC(=S)N2CCN(S(=O)(=O)c3ccc(F)cc3)CC2)cc1 | -5% | -5.1% | / | 2%
CCOC(=O)CCc1nn(C)c(=O)c2ccccc12 | -3% | -3.8% | -1 | 9%

More structures follow.
SMILES | miR-21 FLuc | Rango-impB inh | GLA inh pH 4.5 | Rango dissoc inh
COc1ccc2c(c1)C(SCC(=O)NCc1ccccc1)CC(C)(C)O2 (stereo unspecified) | -6% | 0.2% | -11 | -9%
CCOC(=O)c1ccc(NC(=O)Cn2c(-c3nonc3N)nc3ccccc32)cc1 | -14% | 0.4% | 0 | -16%
NC(=O)c1nsc(C(=O)N(Cc2ccc(F)cc2)C(C(=O)NC2CCCC2)c2ccco2)c1N (stereo unspecified) | 12% | 0.0% | / | -8%
Cc1ccc(S(=O)(=O)Nc2ccccc2C(=O)NCc2cccnc2)cc1 | 0% | -1.8% | 2 | -5%
O=C(CCc1nc(-c2ccccc2)no1)Nc1cccnc1 | -8% | 0.3% | / | 30%
COc1ccccc1-c1nc(C#N)c(N2CCC(Cc3ccccc3)CC2)o1 | 0% | 1.4% | 17 | /
COc1cccc(OC)c1CC1SC(=O)NC1=O (stereo unspecified) | -16% | 1.6% | -2 | 11%
CCOc1ccccc1CN1CCC(N2CCOCC2)CC1 | -3% | 0.3% | / | 0%
COC(=O)CNC(=O)c1c(C)cc(=O)oc1C | -4% | -2.9% | 6 | -1%
COC(=O)CC1SC(=O)NC1=Nc1ccc(OC)cc1 (stereo unspecified) | -3% | -1.9% | -15 | 1%
COc1ccccc1CNC(=O)C1CCC(CNc2c(N3CCOCC3)c(=O)c2=O)CC1 (stereo unspecified) | -2% | -4.5% | 8 | -25%
O=C1CS/C(=N/N=C\c2ccn[nH]2)N1 | 2% | 0.6% | 8 | 1%
CC1=NN(c2nc(-c3ccc(C)cc3)cs2)C(=O)C1N=Nc1ccc2ccccc2c1 (stereo unspecified) | -9% | 0.2% | 2 | -17%
CC(Oc1cccc(F)c1)c1ccnc2nc(/N=C/N(C)C)nn12 (stereo unspecified) | -13% | -1.4% | 7 | -1%
COc1ccc(/C=C/C(=O)Nc2ccc(S(=O)(=O)Nc3cc(C)nc(C)n3)cc2)cc1OC | -4% | -2.0% | / | 23%
COC(=O)c1[nH]c2ccc(F)cc2c1NC(=O)CCN1CC(C)OC(C)C1 (stereo unspecified) | -5% | -2.1% | -5 | -7%
CCOc1ccc(C(=O)NCC(=O)N2CCC(C)CC2)cc1OCC | 2% | -3.4% | 7 | 21%
O=C(Nc1ccc(Cl)c(Cl)c1)Nc1ccccc1NS(=O)(=O)c1cccs1 | 24% | 2.2% | -2 | 1%
COC(=O)c1ccccc1NC(=O)CN1CCCCCC1 | 0% | 2.0% | / | 8%
COC(=O)[C@]1(Cc2ccccc2)N[C@H](c2ccc(-c3ccc(F)cc3)cc2)[C@@H]2C(=O)N(C)C(=O)[C@@H]21 | / | -3.7% | / | 8%
N#Cc1ccccc1OCCOCCNC1CCCC1 | -1% | -2.2% | -5 | -13%
CN(CC(=O)Nc1cccc(F)c1)CC(=O)Nc1cc(S(=O)(=O)N2CCOCC2)ccc1Cl | / | -0.4% | / | 11%
CCN(CC)c1ccc(C(=O)O)cc1 | -1% | 3.8% | 1 | 5%
O=C(CN1CCN(c2ccccn2)CC1)Nc1cccc(Br)c1 | -1% | -2.3% | / | -14%
CC(C)C(=O)NC(=S)Nc1ccc(S(=O)(=O)Nc2nccs2)cc1 | -1% | -0.2% | 9 | 9%
CC(C)[C@H](NC(=O)c1ccccc1F)C(=O)Nc1ccc(F)c(F)c1 | -3% | 3.0% | / | 4%
COc1ccc(CCN(C)C/C=C/c2ccccc2[N+](=O)[O-])cc1OC | -4% | 2.0% | / | -7%
O=C(NCC1CCCCC1)c1cccnc1Cl | -11% | 3.6% | / | -3%
CC1=C(C(=O)Nc2ccc(C)cc2C)C(c2ccc(C)o2)NC(=S)N1 (stereo unspecified) | -13% | 0.4% | 8 | 16%
